Screening results as filed in PubChem.
miR-21 FLuc = qHTS Assay for Modulators of miRNAs and/orActivators of miR-21; Potency, µM (highest dose often 38.3 µM), for the others: at the highest dose reporter change, positive = more light; HeLa miR-21 FLuc reporter, luciferase, 48 h; AID 2288, 2010; 340,000 tested, under 10 active; active = well fitted rising curve with a large enough effect; inconclusive = small, poorly fitted or top-dose-only effect; inactive = no such curve, though single readings can be large or run the other way;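 note: % of control where 0% means no effect; miR-21 action dims this reporter so a rising signal means less miR-21 action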
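HeLa cells stably expressing CMV-driven firefly luciferase with a downstream miR-21 binding sequence, endogenously expressing miR-21, were treated with titrations (up to about 40uM final) for 48 hours at 37 degree Celsius. Luciferase luminescence was read after lysis.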
Rango complex inh = qHTS Assay for Inhibitors of Rango (Ran-regulated importin-beta cargo) - Importin beta complex formation. Importin subunit beta-1 (Homo sapiens), Q14974. Rango CFP/YFP FRET sensor + importin beta, 45 min. Potency, µM (highest dose often 92.2 µM), inactives show at the top dose inhibition of complex formation. 340,000 compounds, 0.031% hits. AID 540263, 2011; active = rising FRET ratio curve, often small or poorly fitted; inconclusive = mostly compound fluorescence or quenching in the first reads; inactive = flat curves in all reads;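 note: potency is the fitted concentration of half-maximal effect; 0% = DMSO wells and 100% = buffer wells lacking importin beta; nearly all actives have a fitted effect of over 15% in size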
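FRET biosensor Rango (snurportin 1 IBB between N-terminal EYFP and C-terminal Cerulean), 50 nM in PBS/1 mM DTT/0.02% Tween-20/0.1% BSA, preincubated 5 min RT with compound; 0.125 microM importin beta added, 45 min RT, CFP/YFP FRET ratio read.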
Rango release inh = qHTS Assay for Inhibitors of RanGTP induced Rango (Ran-regulated importin-beta cargo) - Importin beta complex dissociation; Snurportin-1 (Homo sapiens) + GTP-binding nuclear protein Ran (Homo sapiens) + Importin …; Biochemical FRET Rango-importin beta, RanGTP-induced dissociation; 340,000 compounds, 0.071% hits; Potency, µM (series often up to 46.1 µM), without a hit: top-dose activity change, negative = inhibition; active means falling FRET ratio curve, often poorly fitted, with flat reads before Ran was added; inconclusive means other falling curves, or compound fluorescence or quenching; inactive means flat or rising ratio curve;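 note: potency is the fitted concentration of half-maximal effect; % of control where 0% means no effect; nearly all actives have a fitted effect of over 45% in size; -100% = wells without RanGTP and RCC1; the record marks most hits as doubtful in a second field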
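Two FRET readings bracket the reaction: one 5 min after compound meets Rango–importin beta, another 45 min after RanGTP-RCC1 (0.6 uM Ran, 0.2 uM RCC1, 2 mM GTP) is added. Only the second defines inhibition.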
GLA inh pH 4.5 = qHTS Assay for Inhibitors of Human alpha-Galactosidase at pH 4.5; purified enzyme, 4-MU-alpha-Gal fluorescence, pH 4.5; activity change, negative = inhibition, % at 105 µM; 230,000 tested, under 10 active; inconclusive = small, poorly fitted or top-dose-only inhibition, or a rising curve; inactive = flat fitted curve, though single readings scatter; no compound was filed as active;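 note: 0% = full activity with enzyme and -100% = basal without enzyme; dose as in the result columns while the protocol names 77 µM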
Target sequence (P06280 whole entry, looked up): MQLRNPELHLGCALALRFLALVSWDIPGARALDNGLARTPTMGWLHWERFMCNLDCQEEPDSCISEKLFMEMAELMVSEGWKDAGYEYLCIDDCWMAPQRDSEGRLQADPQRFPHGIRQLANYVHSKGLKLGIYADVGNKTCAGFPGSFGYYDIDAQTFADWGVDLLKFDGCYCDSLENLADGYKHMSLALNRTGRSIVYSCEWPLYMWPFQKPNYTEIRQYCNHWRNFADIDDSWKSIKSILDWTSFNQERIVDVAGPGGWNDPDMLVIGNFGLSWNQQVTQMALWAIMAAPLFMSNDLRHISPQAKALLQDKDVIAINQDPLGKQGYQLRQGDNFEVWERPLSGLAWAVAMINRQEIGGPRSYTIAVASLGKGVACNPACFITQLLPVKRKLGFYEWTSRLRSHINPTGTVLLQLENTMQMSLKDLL
Numbers without * were called inactive; ? = inconclusive; nt = no result given.

miR-21 FLuc	Rango complex inh	Rango release inh	GLA inh pH 4.5	SMILES
-34%	0.2%	-13%	2	CCc1nc2oc3ccccc3c(=O)c2c(=O)n1-c1ccccc1
1%	1.8%	?	-9	COc1ccc(NC(=O)Cn2nnc(-c3ccccc3NC(=O)C3CC3)n2)cc1
-44%	1.6%	0%	2	O=C(c1cnn(-c2ccccc2)c1)c1ccccc1O
15%	-3.6%	-1%	-4	CCOC(=O)C1(Cc2cccc(F)c2)CCN(Cc2ccc(COC)o2)CC1
-2%	-6.1%	26%	3	C=CCC1(NC(C)c2ccccc2)CCCCC1 (stereo unspecified)
-5%	6.8%	0%	4	COc1ccccc1NC(=O)C1CCCCC1
-2%	7.8%	0%	nt	COc1ccc(N2C(=O)CSC2c2ccc([N+](=O)[O-])cc2)cc1 (stereo unspecified)
-8%	0.6%	8%	-3	COc1ccccc1NC(=O)c1ccc(-n2cccn2)nc1
3%	-0.4%	15%	nt	CC(C)c1ccc(NC2CCCN(C(=O)c3cc(C(C)C)[nH]n3)C2)cc1 (stereo unspecified)
0%	0.9%	0%	-5	Cc1ccc(NC(=O)c2nc[nH]c2C(=O)NCC(=O)OC(C)(C)C)cc1
7%	-0.5%	?	4	c1ccc2c(c1)oc1c(NCc3ccc4c(c3)OCO4)ncnc12
0%	0.3%	-13%	3	Cc1cccc(NC(=S)NN2CCN(C)CC2)c1C
-1%	3.2%	5%	-3	Cn1nnnc1SCC(=O)NCc1cccc(C(=O)O)c1
-14%	-0.7%	1%	nt	Cc1ccc(C)c(OCc2cc(C(=O)N(C)Cc3nccn3C)no2)c1
0%	-0.3%	-6%	4	O=C(CSc1nc(-c2ccc(F)cc2)nc2ccc(F)cc12)Nc1cccc(C(=O)O)c1
-27%	-4.6%	-16%	-7	CC(=O)Nc1cc(-c2ccc(F)cc2)[nH]n1
1%	0.5%	0%	4	Cc1cc(C)c2sc(N(CCCN(C)C)C(=O)CN3C(=O)c4ccccc4C3=O)nc2c1
-26%	-0.1%	-12%	3	COc1ccccc1NC(=O)C(=O)N1CCCC1
0%	-2.6%	-5%	4	CCn1c(SCC(=O)N2CCCc3ccccc32)nc2c(c1=O)SC(C)C2 (stereo unspecified)
-6%	2.4%	8%	-3	FC(F)(F)COc1nc(N2CCCCC2)nc(N2CCNCC2)n1
-37%	-3.5%	4%	4	C/C(=N/NS(=O)(=O)c1ccc(Br)cc1)c1ccc(NC(=O)c2ccc(C)o2)cc1
0%	0.3%	-6%	nt	CCCCCCCC(=O)OCC(O)CO (stereo unspecified)
-20%	?	?	3	CC(=O)Nc1nc2n(n1)C(c1ccc(F)cc1)C=C(c1ccccc1)N2 (stereo unspecified)
-8%	-0.3%	1%	9	Cc1cc(C)n(-c2ccc(-n3ccnc3)nn2)n1
-55%	-0.8%	0%	-12	Clc1ccc(Nc2nc3cccnc3s2)cc1
0%	2.6%	7%	nt	Cc1cccc(NC(=O)Nc2c(C)[nH]c(=O)[nH]c2=O)c1C
0%	2.2%	-1%	12	CCc1ccc(OCC(=O)OC2CCS(=O)(=O)C2)cc1 (stereo unspecified)
-11%	0.8%	-8%	17	O=C(CCSc1nc(-c2ccc3c(c2)OCO3)cc(C(F)(F)F)n1)NCc1ccccc1
nt	-3.0%	-6%	nt	CCCCN(C(=O)CSCc1ccc(C)cc1)c1c(N)n(Cc2ccccc2)c(=O)[nH]c1=O
nt	3.6%	1%	nt	CN(C)CCO/N=C(\c1ccc(Br)cc1)c1cccnc1

Part of the list above, as comma-separated lines.
Structure,miR-21 FLuc,Rango complex inh,Rango release inh,GLA inh pH 4.5
CC(=O)Nc1cc(-c2ccc(F)cc2)[nH]n1,-27%,-4.6%,-16%,-7
Cc1cc(C)c2sc(N(CCCN(C)C)C(=O)CN3C(=O)c4ccccc4C3=O)nc2c1,1%,0.5%,0%,4
COc1ccccc1NC(=O)C(=O)N1CCCC1,-26%,-0.1%,-12%,3
CCn1c(SCC(=O)N2CCCc3ccccc32)nc2c(c1=O)SC(C)C2 (stereo unspecified),0%,-2.6%,-5%,4

Other compounds.
miR-21 FLuc	Rango complex inh	Rango release inh	GLA inh pH 4.5	SMILES
-3%	-2.3%	-4%	-2	CC(C)SCc1cc(N2CCCC2)nc(-c2ccccc2)n1
-2%	-2.2%	-2%	1	Cc1ccc(C(=O)NC(=S)N2CCN(c3ccc([N+](=O)[O-])cc3)CC2)cc1
-3%	-1.6%	?	-3	Cn1c(N2CCCC2)nc2c1c(=O)n(Cc1ccc(F)cc1)c(=O)n2C
-3%	5.2%	0%	9	CC1(C)Cc2nc(N)c(C(=O)NCCO)cc2CO1
nt	1.2%	22%	nt	Cn1c(SCC(=O)Nc2ccc3c(c2)OCO3)nnc1C(F)(F)F
0%	?	-17%	2	COc1ccc(Cn2c(C)ccc2C)cc1
-60%	-1.3%	-5%	-14	Cc1ccc(OCC(=O)Nc2ccc(F)cc2)cc1C
9%	2.3%	2%	2	O=C(O)CSc1nnc(-c2ccc3c(c2)OCO3)o1
0%	-0.3%	16%	1	C=C(C)[C@@H]1CC=C(CN2CCC(CCOC)(C(=O)OCC)CC2)CC1
-1%	-1.8%	?	-4	COC(=O)c1cc2c(cc1Cl)N1CCCCCC1=NS2(=O)=O
-38%	-1.0%	0%	1	CCCCOC(=O)Nc1ccc(N2CCCCC2)cc1
25%	-0.9%	-12%	nt	C=CCNc1nc(C)c(CNc2c(C)cc(C)cc2C)nc1C#N
-6%	-2.9%	3%	4	COc1ccc(C(=S)N2CCN(C)CC2)cc1Br
-2%	4.8%	-3%	nt	CCCCN(CC(=O)NC1CCCC1)C(=O)C(=O)Nc1ccc2c(c1)OCCO2
3%	-2.6%	-14%	1	O=C1c2ccccc2C(=O)N1CC(=O)N1c2ccccc2Sc2ccc(C(F)(F)F)cc21
nt	-0.8%	0%	nt	CCOC(=O)[C@H]1[C@H]2COc3ccccc3[C@@H]2N2C(=O)c3cc(Br)ccc3NC(=O)[C@@]12C
-3%	4.4%	-6%	5	CCCCCCc1nnc(N)s1
0%	-1.4%	19%	8	O=C(NCc1cccs1)c1ccc(S(=O)(=O)N2CCCCC2)cc1
-1%	nt	nt	-9	CCCn1c(SCC(=O)NC(=O)NCc2ccco2)n[nH]c1=O
-5%	2.6%	-6%	0	Cc1ccccc1C(=O)Nc1cccc(NC(=O)c2ccc(-c3ccc(Br)cc3)o2)c1
-41%	4.9%	-16%	-8	COc1cccc(/C=C2\N=C3CCCCCN3C2=O)c1
nt	-0.4%	4%	nt	Cc1ccc(CN(C)C(=O)CSc2nnc3n2CCCCC3)c(C)c1
nt	4.6%	-10%	nt	CC(=O)c1ccc(S(=O)(=O)N2CCN(C(=O)c3cccc(S(=O)(=O)N4CC(C)OC(C)C4)c3)CC2)cc1 (stereo unspecified)
-4%	1.2%	3%	7	CN1CCN(NC(=O)c2cn(-c3ccccc3)nc2-c2ccc(OC(F)F)cc2)CC1
-2%	-0.8%	-4%	nt	CC(NC(=O)C1CCC(C(=O)NC(C)c2ccccc2)CC1)c1ccccc1 (stereo unspecified)
3%	?	?	-26	CC1(C)CC=C(NNC(=O)c2cccnc2)C(=O)C1
-38%	-1.2%	13%	nt	COc1ccc(NC(=S)NC(=O)C2CCC2)cc1
-15%	6.6%	3%	-15	COc1ccc(-c2cc([C@H]3[C@H]4C=CC[C@@H](C)[C@@H]4C(=O)N3Cc3ccccc3)ccc2F)cc1OC
-14%	-0.1%	7%	-4	O=C(COc1ccccc1)N(CCc1ccccc1)c1nc(-c2ccc(F)cc2)cs1
1%	-0.6%	-5%	-15	Cc1ccc(-n2c(C)cc(/C=N/NC(=O)c3ccncc3)c2C)c(C)c1

Compound profiles, as listed above.
Results for CC(NC(=O)C1CCC(C(=O)NC(C)c2ccccc2)CC1)c1ccccc1 (stereo unspecified) → miR-21 FLuc = -2%; Rango complex inh = -0.8%; Rango release inh = -4%; GLA inh pH 4.5 = nt
Results for Cc1ccccc1C(=O)Nc1cccc(NC(=O)c2ccc(-c3ccc(Br)cc3)o2)c1 → miR-21 FLuc = -5%; Rango complex inh = 2.6%; Rango release inh = -6%; GLA inh pH 4.5 = 0

(list continues)
miR-21 FLuc	Rango complex inh	Rango release inh	GLA inh pH 4.5	SMILES
10%	-3.4%	0%	-1	Cn1c(=O)n(Cc2ccccc2)c(=O)c2c1nc1n2CCCN1CCc1ccccc1
11%	-0.5%	-6%	-2	COc1ccc(N2CCN(c3c(S(=O)(=O)c4ccccc4)cnc4ccc(OC)cc34)CC2)cc1
?	0.3%	0%	2	O=C(CSc1ncnc2sccc12)Nc1ccccc1
0%	-0.5%	-8%	0	CCOC(=O)c1c(NC(=O)C2C3CCC(O3)C2C(=O)O)sc(C)c1-c1ccc(C)cc1 (stereo unspecified)
nt	-4.6%	1%	nt	O=C(/C=C/c1cccc(Cl)c1)NNC(=O)c1ccncc1
5%	0.3%	4%	0	COc1cccc(-c2cc(C(=O)Nc3c(C)nn(Cc4ccccc4C)c3C)no2)c1
-3%	-0.7%	33%	-6	COc1ccc(NC(=O)CSc2ccc3c(c2)OCCO3)cc1OC
-1%	-1.7%	5%	-6	COc1cc(S(=O)(=O)N2CCOCC2)ccc1NC(=O)COC(=O)COc1ccccc1
-7%	-0.4%	-17%	4	Cc1nc(SCC(=O)Nc2cc(C(N)=O)cc(C(N)=O)c2)c2c(C)c(C)sc2n1
1%	-1.0%	13%	nt	CS(=O)(=O)N(CC(=O)Nc1ccc(F)cc1F)C1CCCCC1
-1%	3.3%	2%	nt	COc1ccc(OC)c(C2/C(=C(\O)c3ccc4c(c3)OCCO4)C(=O)C(=O)N2CC2CCCO2)c1 (stereo unspecified)
14%	1.1%	7%	-26	COc1cc(-c2nc(CN3CCCN(C(=O)c4ccco4)CC3)c(C)o2)ccc1F
nt	-0.3%	14%	nt	C=C1CCN([C@@H](Cc2ccccc2)C(=O)Nc2ccc(OC)cc2)S(=O)(=O)c2ccccc21
-2%	3.1%	3%	8	COC(=O)c1c(-c2ccccc2)csc1NC(=O)CSc1ncnc2sc(C)c(C)c12
1%	1.7%	1%	2	CC1=C(C(=O)OCC2CCCO2)C(c2ccc(Cl)cc2)NC(=O)N1 (stereo unspecified)
-4%	-2.8%	-12%	-7	CCC(C)OC(=O)C1=C(C)NC2=C(C(=O)C(C(=O)OC)C(C)C2)C1c1ccc(N(C)C)cc1 (stereo unspecified)
nt	-0.2%	-9%	nt	CCN(CC(=O)Nc1ccc(OC)cc1)C(=O)CSCc1ccc(C)cc1
9%	-1.4%	8%	1	CCOc1ccc(OCC)c(NC(=O)CC2Oc3ccc(C)cc3NC2=O)c1 (stereo unspecified)
-2%	5.9%	-11%	6	OC(CNC1CCCC1)COc1c(F)cc(Br)cc1F (stereo unspecified)
nt	-0.4%	-22%	nt	O=C(Cc1c[nH]c2ccccc12)N1CCN(S(=O)(=O)c2cccc(Cl)c2Cl)CC1
1%	-0.9%	-15%	-20	O=[N+]([O-])c1cc(S(=O)(=O)c2ccc(N3CCCCC3)c([N+](=O)[O-])c2)ccc1N1CCCCC1
2%	-2.0%	6%	nt	CN(CC(=O)NCCCN1CCOCC1)S(=O)(=O)c1ccc(F)cc1
-10%	-4.9%	-7%	12	c1coc(C2Nc3ccccc3-c3nc4ccccc4n32)c1 (stereo unspecified)
-3%	-2.5%	1%	3	CCCC(=O)N1CCN(c2ccc(NC(=O)C(C)(C)C)cc2)CC1
nt	-3.5%	7%	nt	Cc1cnc(NC(=O)CC2OC(=O)c3ccccc32)s1 (stereo unspecified)
-34%	-1.6%	-1%	8	Cc1ccc(S(=O)(=O)/N=C(\N)Nc2nc(C)c3cc(C)ccc3n2)cc1
-2%	-3.0%	0%	-4	CCOc1cc(/C=C2/N=C(c3ccc(C(C)(C)C)cc3)OC2=O)cc(Cl)c1OS(C)(=O)=O
-6%	-3.0%	0%	4	O=C(Nc1ccc(S(=O)(=O)Nc2ncccn2)cc1)c1cncc(Br)c1
nt	0.3%	12%	nt	Cc1cc(-c2nc3cc(F)ccc3s2)ccc1N

Some of the compounds tested, so the mix of outcomes need not match the whole.
